# Compound activity from PubChem BioAssay.
# HNF4A DNA FP = change in binding of human HNF4 alpha to DNA | HNF4a-FITC DNA binding, fluorescence polarization, 1 h | activity change, % at 10 µM | 360,000 tested, 0.3% active; in the data active = activity change above about 30%, passing the limit was not always enough;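 note: controls were the assay level and a saturating level of protein; the project sought stronger binding though the title names inhibitors; some compounds called inactive have numbers as strong as hits; positive values seem to mean higher polarization but the record does not say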
# RanGTP-Impb inh = inhibitors of RanGTP-importin-beta interaction, primary screen, biochemical, FRET, CFP-Ran, YFP-importin-beta, homogeneous; cell-free CFP-Ran/YFP-importin-beta FRET ratio; inhibition, % (no concentration beside the values); 300,000 tested, 1.1% active; AID 2216;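 active = most replicates above 15%; inconclusive = exactly half above 15%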;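 note: 0% = DMSO wells and 100% = Ran loaded with GDP instead of GTP; wells of about 40 µL received 100 nL stock; the first replicate is given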
# Vif A3G = HIV-1 Vif–A3G interaction blockers – biochemical, TR-FRET, GST-Vif 1-94, biotin-A3G peptide, dose response retest, primary screen (AID 1117319); TR-FRET GST-Vif / biotin-A3G peptide binding; higher % means a stronger effect; test concentration not given here; strong numbers were not always called active; inhibition, %; hits with a dose series show IC50 in µM; 260,000 tested, 0.57% active;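 active = above the screen mean plus three standard deviations and confirmed in dose response; inconclusive = results disagree or hit not tested in dose response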;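 note: Vif residues 1-94 fused to GST binding biotinylated APOBEC3G peptide 110-148; 0% = full assay without inhibitor and 100% = GST in place of GST-Vif; retest series ran down from 100 µM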
# FGF22 binding = binders of recombinant human FGF22 by thermal shift; 340,000 tested, 1.5% active; calls only at 9.99 µM; SYPRO orange fluorescence; percent of sucrose octasulfate shift, DMSO zero; Q9HCT0;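 active = melting point raised past a set limit in the mean and every replicate; inconclusive = no clear call; three in four hits are not shown here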
# Target sequence (Q9HCT0 whole entry, looked up): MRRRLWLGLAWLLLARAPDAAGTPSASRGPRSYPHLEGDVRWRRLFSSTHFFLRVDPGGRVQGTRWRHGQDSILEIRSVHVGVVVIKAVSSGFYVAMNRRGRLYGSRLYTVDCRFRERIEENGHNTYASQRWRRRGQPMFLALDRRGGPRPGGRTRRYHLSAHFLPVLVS
# UCH37 DUB inh = blocks the human deubiquitinase UCH37. inhibition, % (no concentration beside the values). 330,000 tested, 0.33% active. purified proteasome/UCH37, Ub-AMC cleavage fluorescence;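 active = mean of two replicates above 20%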;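 note: 0% = compound-free wells with enzyme and 100% = wells lacking proteasome; stock transfer was 100 nL into about 20 µL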
# Target sequence (Q9Y5K5 whole entry, looked up): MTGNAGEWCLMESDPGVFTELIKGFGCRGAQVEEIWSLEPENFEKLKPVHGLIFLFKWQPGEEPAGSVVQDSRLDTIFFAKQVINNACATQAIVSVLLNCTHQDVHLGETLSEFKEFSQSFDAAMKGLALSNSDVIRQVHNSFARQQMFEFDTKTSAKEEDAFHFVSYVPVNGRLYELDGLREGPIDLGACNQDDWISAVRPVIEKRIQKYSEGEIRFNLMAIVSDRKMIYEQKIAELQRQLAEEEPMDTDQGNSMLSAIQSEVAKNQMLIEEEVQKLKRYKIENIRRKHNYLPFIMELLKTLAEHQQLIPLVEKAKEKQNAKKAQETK
#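 Signal – fluorescence, ex 355 nm, em 460 nm · System – Proteasome-bound UCH37 · Input – 0.15 nM proteasome as dispensed · Timing – 30 min preincubation with enzyme, 25 min cleavage at room temperature · Read-out basis – percent inhibition of cleavage signal versus uninhibited and no-proteasome wells · Medium – Tris-HCl pH 7.4 with ATP-MgCl2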
# Ecoli growth = inhibitors of Escherichia coli growth; OD600, 23 h; active compounds read low; OD600 absorbance (no concentration beside the values); 330,000 tested, 0.21% active;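 active = OD600 absorbance below the run mean of sample wells minus 3.6 SD, in any replicate, cut at about 0.56 in these data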;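 note: stock transfer was 300 nL into about 60 µL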
# AF4-AF9 inh = MLL-AF4/AF9 protein interaction inhibition; inhibition, % at 10 µM; AlphaScreen, biotin-AF4 peptide binding to FLAG-AF9; P42568; 350,000 tested, 0.47% active;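 active = every replicate reaching a set inhibition limit, whatever the replicate mean, cut at about 25% in these data; inconclusive = mean inhibition reaches that limit but some replicates miss it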;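 note: 0% = plate neutral control median and 100% = total signal loss; the record names both 10 and 1 µM as test concentration; the first replicate is given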
# Target sequence (P42568 whole entry, looked up): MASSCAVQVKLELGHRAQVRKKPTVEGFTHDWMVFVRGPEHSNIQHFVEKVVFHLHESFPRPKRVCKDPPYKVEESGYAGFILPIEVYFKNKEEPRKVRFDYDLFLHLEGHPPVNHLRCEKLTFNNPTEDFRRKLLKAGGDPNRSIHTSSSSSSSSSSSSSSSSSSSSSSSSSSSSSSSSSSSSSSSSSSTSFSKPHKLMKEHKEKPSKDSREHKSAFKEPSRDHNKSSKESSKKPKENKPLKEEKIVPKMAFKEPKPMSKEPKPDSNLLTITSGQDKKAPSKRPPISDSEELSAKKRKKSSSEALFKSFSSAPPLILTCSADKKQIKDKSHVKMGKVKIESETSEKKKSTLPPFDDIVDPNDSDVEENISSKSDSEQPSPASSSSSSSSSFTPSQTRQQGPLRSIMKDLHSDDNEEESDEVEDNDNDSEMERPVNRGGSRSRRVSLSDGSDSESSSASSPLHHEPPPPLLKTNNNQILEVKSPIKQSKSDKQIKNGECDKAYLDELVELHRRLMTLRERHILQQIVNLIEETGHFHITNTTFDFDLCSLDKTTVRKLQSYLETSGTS
# Starred values were filed as active, the others as inactive; i = inactive; ? = inconclusive; · = no result given. A portion of the library; count on the stated rates, not on these rows.
HNF4A DNA FP	RanGTP-Impb inh	Vif A3G	FGF22 binding	UCH37 DUB inh	Ecoli growth	AF4-AF9 inh	molecule
-1.7	·	-1%	i	2.2	0.69	-4.5	CC(C)(CCc1ccccn1)C(=O)C(CCc1ccccn1)CCc1ccccn1
0.1	-0.3	7%	·	-299	0.68	·	Cn1c(-c2ccc[nH]c2=O)nc2cc(Cl)ccc21
-1.4	-1.9	·	i	2.8	0.73	5.5	CC(CNC(=O)c1ccccc1[N+](=O)[O-])NC(=O)c1ccccc1[N+](=O)[O-] (stereo not given)
-1.3	-1.5	·	·	-23	0.68	·	CCc1cc(=O)oc2c(C)c(OCC(=O)NC3CC(C)(C)NC(C)(C)C3)ccc12
1.4	0.9	-29%	i	1.8	0.72	-2.6	Cc1ccc(S(=O)(=O)Nc2cnn(-c3ccccc3)c(=O)c2Cl)cc1
4.1	-3.3	6%	i	2.6	0.62	-3.6	COc1ccccc1N1CCNC(C)C1=O (stereo not given)
0.9	2.4	?	·	2.8	0.71	·	O=C(NC1=NCCS1)c1sc2cc(F)ccc2c1Cl
3.2	-0.7	-4%	i	-2.7	0.69	-3.1	Cc1cc(C)cc(NC(=O)COC(=O)CCCNC(=O)c2ccc(Cl)cc2)c1
0.4	1.5	·	i	5.8	0.67	-0.5	COc1ccc(S(=O)(=O)Nc2c(C)cccc2C)cc1-n1cnnn1
3.3	4.2	-3%	i	2.9	0.75	-2.5	Cn1c(SCc2nc(-c3ccc(Cl)cc3)no2)nnc1-c1ccco1
-1.3	-1.0	-3%	·	3.2	0.65	0.8	O=C(COc1ccc(-c2nnco2)cc1)Nc1c(Cl)cccc1C(F)(F)F
0.7	129*	5%	i	1.2	0.71	-1.6	O=c1cc(N2CCCCCC2)[nH]c(=O)n1-c1ccc(Cl)cc1
1.5	-1.9	6%	i	1.3	0.7	1.0	CC(C)C(OC(=O)CN1C(=O)COc2ccccc21)C(=O)NC1CCCCC1 (stereo not given)
-5.4	·	·	i	-1.6	0.72	2.7	CC1CC(C(O)c2ccccn2)C(=O)C(C(O)c2ccccn2)C1 (stereo not given)
0.4	3.4	-2%	i	3.8	0.65	-5.0	Cc1ccccc1-c1nnc(SCC(=O)NC2CCCC2)o1
0.8	1.3	2%	·	-22	0.69	·	COc1ccc(CNCc2cc3c(C(C)(C)C)nn(-c4ccccc4)c3[nH]c2=O)cc1
1.8	4.7	?	i	2.4	0.72	-2.0	COc1ccc(-n2nc3c(c2NC(=O)c2ccc(N4C(=O)CCC4=O)cc2)CSC3)cc1
1.1	3.8	2%	·	-2.8	0.73	·	C=CCn1c(NCCc2ccccc2)nc2c1c(=O)n(C)c(=O)n2C
-2.3	3.7	-3%	i	-0.2	0.7	0.5	Cc1ccc(NC(=O)CSc2nnc(COc3ccccc3C)o2)cc1
5.6	-3.1	·	i	1.3	0.68	2.7	C[C@H](NC(=O)C1CC(=O)N(c2ccc3c(c2)OCCO3)C1)C(=O)N1CCCCC1 (stereo not given in full)

# Other compounds
HNF4A DNA FP	RanGTP-Impb inh	Vif A3G	FGF22 binding	UCH37 DUB inh	Ecoli growth	AF4-AF9 inh	molecule
-5.8	·	9%	i	·	·	-1.2	CCC(CC)CN1CCC(CN2CCNC(=O)C2=O)CC1
-0.5	-0.8	16%	·	-91	0.7	·	CCN1CCc2c(C#N)c(N3CCCCC3)nc(N3CCOCC3)c2C1
3.2	1.4	4%	i	1.5	0.7	-3.3	CC1(C)CC(NC(=O)C(Cl)(Cl)Cl)CC(C)(C)N1
-0.6	1.8	10%	·	9.1	0.7	·	O=C(N/C(=C\c1ccc([N+](=O)[O-])cc1)C(=O)N1CCCCC1)c1ccccc1Br
16	·	·	i	·	·	-0.9	CC(C)(C)NC(=O)C1c2ccccc2OCC(=O)N1Cc1ccccn1 (stereo not given)
-6.0	·	-3%	i	3.0	0.67	-1.7	CC(=O)c1ccc(OCC(=O)NC2CCCCCC2)cc1
0.8	-3.3	2%	i	4.1	0.72	-5.3	COc1ccc(C(=O)C2CCCN(S(=O)(=O)c3cccc(C)c3)C2)c(C)c1 (stereo not given)
4.6	-7.6	12%	i	2.1	0.64	-13	Cc1c(NS(=O)(=O)c2ccc3nc(COc4ccccc4Cl)[nH]c3c2)c(=O)n(-c2ccccc2)n1C
4.5	2.0	·	i	3.3	0.72	-1.2	O=C(Nc1ccc(Cl)cc1)/C(=C1\CCCN1)[N+](=O)[O-]
-2.1	1.0	-7%	·	5.1	0.71	·	CC(=O)N1Cc2ccccc2C(C)CC12CCCC2 (stereo not given)
-4.6	0.2	·	i	-3.7	0.7	-6.5	O=C(c1cc(C(=O)c2ccco2)cc(C(=O)c2ccco2)c1)c1ccco1
-0.6	1.2	-79%	·	3.6	0.74	·	Cc1ccccc1Cn1c(=O)n(Cc2ccco2)c(=O)c2ccccc21
-1.3	-3.7	?	·	5.1	0.7	·	COc1ccc(CN(Cc2cccnc2)C(=S)NCCc2ccccc2)cc1OC
0.1	-0.4	2%	·	0.3	0.67	·	CCOC(=O)c1cc2sc(C)cc2n1CC(=O)N1CCOCC1
18	3.4	·	i	11	0.69	5.0	COc1cc(/C=C2\SC(=Nc3ccccc3OC)NC2=O)ccc1O
2.2	·	·	i	·	·	18	COc1ccc(-n2nnnc2C(CCSC)N2CCN(C/C=C/c3ccccc3)CC2)cc1 (stereo not given)
1.6	0.1	·	i	3.0	0.71	0.1	COc1ccc(N2CCN(C(=O)CCc3nnc4ccc(N5CCCC5)nn34)CC2)cc1
-1.6	-3.7	·	i	4.6	·	-2.5	O=C(Nc1nccs1)[C@@H]1CC=C[C@@H]2CCN(Cc3ccccc3)C(=O)[C@@H]21
-1.6	0.0	·	i	1.9	0.71	-12	Cc1cccc(NS(=O)(=O)c2nnc(NC(=O)c3ccc(Cl)cc3)s2)c1
-0.6	·	·	i	·	·	0.1	Cc1ccc2c(c1)CO[C@]21O[C@H](CCO)C[C@H](O)[C@H]1O

# New compounds follow
HNF4A DNA FP	RanGTP-Impb inh	Vif A3G	FGF22 binding	UCH37 DUB inh	Ecoli growth	AF4-AF9 inh	molecule
3.0	1.9	·	i	-1.4	0.7	0.2	CCN(CC)C(=O)c1ccc(NS(=O)(=O)c2ccc3[nH]c(=O)[nH]c3c2)cc1
1.1	-0.6	·	i	1.5	0.72	3.6	O=C(NCCc1ccc(Cl)cc1)c1cnc2n(c1=O)CCS2
1.4	0.8	?	i	0.5	0.72	-29	O=S(=O)(Nc1ccccc1O)c1ccc(Cl)nc1
0.7	7.7	·	i	5.3	0.69	4.3	COC(=O)c1c(NC(=O)Cc2ccccc2)sc2c1CC(C)(C)NC2(C)C
0.6	0.9	-1%	i	3.7	0.69	-4.1	CCCCc1ccc(S(N)(=O)=O)cc1
-3.8	-0.7	-1%	i	-5.6	0.69	4.3	COc1ccc(CN2CCNC(=O)C2CC(=O)NC2CCOCC2)cc1C (stereo not given)
-1.8	·	·	i	-0.7	0.66	3.9	CC(N)C(=O)NC(C(=O)N1CCCC1C(=O)NC(c1ccccc1)c1ccccc1)C(C)C (stereo not given)
2.2	1.7	·	i	3.5	0.74	3.4	CCc1ccc(C(=O)CSc2nc3cc(S(=O)(=O)N4CCOCC4)ccc3n2CC)cc1
4.1	-0.3	-6%	·	4.3	0.71	·	N#Cc1cccc(NC(=O)CCC2CCCC2)c1
5.2	6.2	-2%	·	2.3	0.71	·	COC(=O)C(NC(=O)c1ccc(Cl)cc1)(Nc1nc(C)cs1)C(F)(F)F (stereo not given)
-2.8	3.7	·	i	-3.0	0.67	-4.2	COc1ccccc1C(=O)N/C(=C\c1cn(S(=O)(=O)N(C)C)c2ccccc12)C(=O)N1CCCC1
7.5	·	·	i	1.6	0.69	3.1	COc1cccc(C#Cc2c(CO)[nH]c3ccccc23)c1
-3.1	-2.2	-2%	i	·	·	-2.6	COCCCNC(=S)N/N=C/c1ccc(O)cc1
-0.8	5.5	1%	·	29*	0.69	·	Cc1cc(C)c2c(CC(=O)O)coc2c1
0.7	2.3	0%	·	-2.0	0.66	·	Cc1occc1C(=O)Nc1ccc2c(c1)OCO2
-1.0	4.8	-9%	i	-0.9	0.67	-3.3	CCCCCCNC(=O)Cc1ccc(Br)cc1
0.9	·	0%	i	-1.5	0.69	2.0	Cc1cc(OCC(=O)OCC(=O)Nc2ccc(Cl)cn2)ccc1Cl
1.5	10	-7%	i	4.9	0.7	-1.7	CCC(=O)NC(=S)Nc1ccc(NC(=O)c2ccco2)c(Cl)c1
5.4	0.7	32%	i	14	0.63	-0.5	CC(=O)c1ccc(NC(=S)NNC(=O)c2ccccc2[N+](=O)[O-])cc1
1.9	-2.6	?	i	0.8	0.69	3.6	CC(=O)C1=C(c2ccccc2)NC(=O)NC1c1ccc(O)c(O)c1 (stereo not given)

# Continued; the last four above are carried over.
HNF4A DNA FP	RanGTP-Impb inh	Vif A3G	FGF22 binding	UCH37 DUB inh	Ecoli growth	AF4-AF9 inh	molecule
0.9	·	0%	i	-1.5	0.69	2.0	Cc1cc(OCC(=O)OCC(=O)Nc2ccc(Cl)cn2)ccc1Cl
1.5	10	-7%	i	4.9	0.7	-1.7	CCC(=O)NC(=S)Nc1ccc(NC(=O)c2ccco2)c(Cl)c1
5.4	0.7	32%	i	14	0.63	-0.5	CC(=O)c1ccc(NC(=S)NNC(=O)c2ccccc2[N+](=O)[O-])cc1
1.9	-2.6	?	i	0.8	0.69	3.6	CC(=O)C1=C(c2ccccc2)NC(=O)NC1c1ccc(O)c(O)c1 (stereo not given)
-2.9	-1.2	0%	·	6.4	0.71	·	CC(=O)Nc1ccc(S(=O)(=O)Nc2cc(C)c(-n3nc4ccccc4n3)cc2O)cc1
-5.6	-2.7	-14%	i	1.2	0.65	·	COC(=O)CCSC(=S)N1CCOCC1
2.9	·	·	i	·	·	-1.0	CCCS(=O)(=O)NC(=O)C1(C)CCCN(C(=O)c2ccccc2OC)C1 (stereo not given)
2.7	1.1	-7%	·	-1.0	0.71	·	CCCc1nc(SCC(=O)Nc2cc(C)on2)c2ccccc2n1
-1.6	·	·	i	0.8	0.72	-2.7	CCOc1ccc(OCCC(=O)OCC(=O)Nc2cc(S(=O)(=O)N3CCOCC3)ccc2OC)cc1
-0.1	-2.5	-7%	·	0.3	0.68	·	Cn1nccc1NC(=O)Nc1ccccc1
-0.9	·	·	i	·	·	-1.5	CC(=O)c1ccc(Nc2nc(C(N)C(C)C)cs2)cc1 (stereo not given)
5.1	0.0	·	i	·	·	2.2	Cc1ccc(-c2nnc(Nc3ccc(C(N)=O)cc3)c3ccccc23)cc1S(=O)(=O)NCC1CCCO1 (stereo not given)
-1.1	?	17%	·	1.6	0.68	·	O=C(Nc1nc2ccccc2s1)C1CC(=O)N(c2ccc(Cl)cc2)C1 (stereo not given)
·	-4.1	?	·	·	·	5.3	COc1cc(/C=C2/C(C)=C(C#N)c3nc(N)c(C#N)c(C)c32)ccc1OCC(=O)O
-0.1	2.2	·	i	0.3	0.68	-4.3	CCn1cnc2scc(-c3ccc(C)c(C)c3)c2c1=O
-2.4	1.9	-2%	i	1.5	0.68	1.2	Cc1cc(C)cc(NC(=O)c2ccc(S(=O)(=O)NCc3cccnc3)cc2)c1
-1.5	?	·	i	·	·	1.3	COC(=O)/N=C(/Cc1ccc(OC)cc1)c1ccc(OC)cc1
0.5	3.1	-11%	i	3.2	0.72	-0.7	O=C(NCCCN1CCOCC1)/C(=C/c1ccc(F)cc1)NC(=O)c1ccccc1
5.3	1.6	5%	i	2.8	0.68	-0.1	COCCNC(=O)Cn1nc(-c2ccc(C)cc2)c2ccccc2c1=O
2.6	0.4	20%	i	3.5	0.68	-1.5	OCC1(CCc2ccccc2)CCN(Cc2ccc(OC(F)F)cc2)CC1
